D2 agonist: Beta-Arrestin HTS for Positive Allosteric Modulators of the Human D2 Dopamine Receptor: Agonists; DiscoveRx PathHunter D2 beta-arrestin, luminescence, 90 min; 100% = 57 uM dopamine signal; activation, % (test concentration not listed); 0.084% of 360,000 active; D(2) dopamine receptor (Homo sapiens), P14416; in the data active = activation above about 40%; inconclusive = about 15% to 40%; inactive = below about 15%; further: compound concentration not given in the record; the text of the record calls up to 30% inactive
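Agonist mode: compounds alone added to overnight-plated D2 PathHunter cells for 90 min at 37 C, with 57 uM final dopamine (EC100) defining full response. Beta-arrestin recruitment detected by chemiluminescent reagent, read after 1 h at ambient temperature.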
PINK1 expr mod: A Quantitative High throughput Screen to Identify Chemical Modulators of PINK1 Expression; PINK1 immunofluorescence, high-content cytometry, 24 h; Potency, µM (series often up to 76.6 µM), inactives show at the top dose activation (PINK1 increase), hits mostly activators; 0.2% of 410,000 active; active = well fitted activation curve with a large enough effect; inconclusive = small, poorly fitted or top-dose-only effect; inactive = flat fitted curve, though single readings scatter; cell line not stated here;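 further: potency means the concentration at half of the fitted maximal effect; % of control where 0% means no effect; nearly all actives have a fitted effect of over 65% in size; a mitochondrial uncoupler was the plate control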
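Cells are seeded, rested 12 hours, then given compound at five concentrations or DMSO for 24 hours. After fixation, blocking and antibody staining, PINK1 amount and mitochondrial localization are scored; CCCP serves as control.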
TRPML1 blocker: qHTS for Inhibitors of the Human Mucolipin Transient Receptor Potential 1 (TRPML1); TRPML1-inducible cells, Ca2+ dye fluorescence, FDSS; hits give low values; inhibition of EC80 agonist-evoked calcium signal; activity change, negative = inhibition, % (concentration not given with the values); 0.02% of 390,000 active; AID 624415, 2012; in the data active means activity change below about -50%; inconclusive means about -30% to -50%; inactive means above about -30%;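 further: stimulus is agonist 54-4 at its EC80 concentration; on the % scale 0 is the no-effect control and ±100 the full control effect; compound concentration not given in the record; the text of the record puts the active cut at -80%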
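Calcium fluorescence in TRPML1-DL cells induced overnight with Tet: a 110 s read after compound pin addition, then a 110 s antagonist read after challenge with 54-4 at 4 uM final (EC80).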
Six1-Eya2 blk: qHTS Assay for Inhibitors of the Six1/Eya2 Interaction; AID 651725, 2012; AlphaScreen GST-Six1/His-Eya2 binding, biochemical; hits give low values; control for the full effect not named in the record; 0.56% of 360,000 active; activity change, % (concentration not given with the values); in the data active = activity change below about -65%; inconclusive = about -30% to -65%; inactive = above about -30%; further: on the % scale 0 is the no-effect control and ±100 the full control effect
Target sequence (O00167 whole entry, looked up): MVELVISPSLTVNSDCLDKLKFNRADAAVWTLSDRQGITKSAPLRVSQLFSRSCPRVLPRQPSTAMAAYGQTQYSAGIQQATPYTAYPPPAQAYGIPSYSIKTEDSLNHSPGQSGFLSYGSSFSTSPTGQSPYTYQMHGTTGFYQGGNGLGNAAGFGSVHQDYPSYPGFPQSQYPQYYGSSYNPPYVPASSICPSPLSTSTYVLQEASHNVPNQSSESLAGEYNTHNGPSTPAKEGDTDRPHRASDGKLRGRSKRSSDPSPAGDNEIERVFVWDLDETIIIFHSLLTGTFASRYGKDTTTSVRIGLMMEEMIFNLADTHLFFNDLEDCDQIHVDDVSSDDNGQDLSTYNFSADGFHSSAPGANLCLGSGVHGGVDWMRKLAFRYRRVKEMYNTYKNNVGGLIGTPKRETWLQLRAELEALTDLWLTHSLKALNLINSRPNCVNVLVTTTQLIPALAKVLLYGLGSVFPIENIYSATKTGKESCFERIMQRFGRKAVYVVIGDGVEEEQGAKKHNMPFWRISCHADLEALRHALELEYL
Target sequence (Q15475 whole entry, looked up): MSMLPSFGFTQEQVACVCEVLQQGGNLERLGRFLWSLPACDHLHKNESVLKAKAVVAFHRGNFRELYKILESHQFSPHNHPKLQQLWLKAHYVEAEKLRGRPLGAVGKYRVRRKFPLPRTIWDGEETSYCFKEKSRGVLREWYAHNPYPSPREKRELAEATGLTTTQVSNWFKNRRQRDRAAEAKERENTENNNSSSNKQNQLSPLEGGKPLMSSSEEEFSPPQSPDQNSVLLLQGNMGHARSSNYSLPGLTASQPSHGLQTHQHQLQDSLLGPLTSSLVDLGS
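Homogeneous AlphaScreen proximity assay pairing GST-Six1 with His-tagged Eya2 (added as 5X mix: 250 nM and 500 nM) in 50 mM Tris pH 8.0, 300 mM NaCl, 1 mM TCEP. Glutathione donor and nickel acceptor beads; 1 h, 37 °C, dark.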
CtBP-E1A blk: qHTS Assay for Inhibitors of the CtBP/E1A Interaction | CtBP / adenovirus E1A interaction (AlphaScreen) | AlphaScreen GST-E1A/His-CtBP binding, 1536-well; hits give low values; control for the full effect not named in the record | activity change, % (test concentration not listed) | 0.49% of 340,000 active | AID 651724, 2012; in the data active means activity change below about -65%; inconclusive means about -30% to -65%; inactive means above about -30%; further: on the % scale 0 is the no-effect control and ±100 the full control effect; compound concentration not given in the record
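GST-E1A and His-tagged CtBP (125 nM each as 5X stock) were preincubated with pin-transferred compound for 2 h at 37 °C in the dark, then glutathione donor and nickel acceptor beads were added for 1 h before AlphaScreen reading.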
TRPML1 agonist: qHTS for Agonists of the Human Mucolipin Transient Receptor Potential 1 (TRPML1) | activation, % (concentration not given with the values) | 0.12% of 410,000 active | Mucolipin-1 (Homo sapiens), Q9GZU1 | TRPML1-expressing cells, Ca2+ dye fluorescence, FDSS; host cell line not named in the record; reference of the full effect not given here; in the data active = activation above about 50%; inconclusive = about 30% to 50%; inactive = below about 30%; further: 0% is about no effect; the text of the record puts the active cut at 80%
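Tetracycline-induced TRPML1-DL cells are seeded and incubated overnight before loading with a no-wash Ca2+ dye and quencher. Agonist activity is taken from the 110 s fluorescence read following compound pin-transfer on an FDSS, before EC80 54-4 challenge.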
Numbers without * were called inactive; ? = inconclusive; · = not tested or not shown; & = joins results of further samples; [ ] = another dose, or the depositor's remark.

Start of the listing, in advance:
SMILES	D2 agonist	PINK1 expr mod	TRPML1 blocker	Six1-Eya2 blk	CtBP-E1A blk	TRPML1 agonist
CCC1CN(C(=O)C2CCN(S(=O)(=O)c3c(C)noc3/C=C/c3ccc(C)cc3)CC2)c2cc(C)ccc2O1 (stereo not given)	·	1.6%	6	·	·	0.2
O=c1c2ccccc2nc2sc(Nc3cccc(C(F)(F)F)c3)nn12	·	1.0%	21	·	·	0.5
Cc1cccc(-c2nc(CS(=O)CC(=O)NCc3cccs3)c(C)o2)c1 (stereo not given)	-9.4	0.7%	1	2	-1	0.0
CCOC(=O)c1ccc(N2C(=O)CC(N3CCN(C(=O)c4ccccc4)CC3)C2=O)cc1 (stereo not given)	-3.0	-2.2%	11	3	4	3.4
CC1CCN(S(=O)(=O)c2ccc(C(=O)Nc3nnc(-c4ccncc4)o3)cc2)CC1	-2.4	0.6%	6	-5	-26	-0.2

The list itself, previewed entries included:
SMILES	D2 agonist	PINK1 expr mod	TRPML1 blocker	Six1-Eya2 blk	CtBP-E1A blk	TRPML1 agonist
CCC1CN(C(=O)C2CCN(S(=O)(=O)c3c(C)noc3/C=C/c3ccc(C)cc3)CC2)c2cc(C)ccc2O1 (stereo not given)	·	1.6%	6	·	·	0.2
O=c1c2ccccc2nc2sc(Nc3cccc(C(F)(F)F)c3)nn12	·	1.0%	21	·	·	0.5
Cc1cccc(-c2nc(CS(=O)CC(=O)NCc3cccs3)c(C)o2)c1 (stereo not given)	-9.4	0.7%	1	2	-1	0.0
CCOC(=O)c1ccc(N2C(=O)CC(N3CCN(C(=O)c4ccccc4)CC3)C2=O)cc1 (stereo not given)	-3.0	-2.2%	11	3	4	3.4
CC1CCN(S(=O)(=O)c2ccc(C(=O)Nc3nnc(-c4ccncc4)o3)cc2)CC1	-2.4	0.6%	6	-5	-26	-0.2
CCCC(=O)Nc1ccc2c(c1)C(=O)N(CCC(=O)O)C2=O	1.8	13%[38.3 µM]	13	1	3	-0.4
O=Cc1ccccc1-n1cccn1	-4.3	1.7%	0	1	-2	0.2
CCN(CC)C(=O)CS(=O)CC(=O)Nc1cc(OCCOC)c(Cl)cc1Cl (stereo not given)	-2.4	-0.4%	-17	3	4	-0.8
COCCC1CCCCN1C(=O)c1cccc(OC2CCN(C3CCCC3)CC2)c1 (stereo not given)	1.7	0.0%	-3	2	11	-0.3
CCOc1ccc(CN(C)C(=O)c2cccc(S(=O)(=O)N3CCCC3)c2)cc1OC	-1.4	2.9%	-3	8	·	-0.6
COc1cc(OC)cc(C(=O)/C=C2\Sc3ccccc3N2C)c1	-6.8	-1.5%	-9	0	8	-0.2
COC(=O)COc1ccc(/C=C2/SC(=O)N(CC(=O)N3CCCC3)C2=O)cc1Br	-0.8	5.7%	-5	1	1	0.8
COc1ccc(NC(=O)COC(=O)CCC(=O)c2cccs2)cc1OC	-2.4	1.7%	-1	-7	2	0.1
COc1cccc2cc(C(=O)C3=C(O)C(=O)N(CCN(C)C)C3c3ccc(F)cc3)oc12 (stereo not given)	-1.1	3.0%[38.3 µM]	14	-6	11	-0.4
C[C@]12CCC(=O)C[C@@H]1CC[C@@H]1[C@@H]2CC[C@]2(C)[C@@H](C(=O)COC(=O)CCC(=O)O)CC[C@@H]12	2.2&4.4	-0.2%&2.2%	?	-4&4	-8	-0.2&0.5
Cc1cc(Cl)c(S(=O)(=O)N2CCN(c3ccc(F)cc3)CC2)cc1OCC(=O)NC1CCCCC1	2.4	-6.8%[38.3 µM]	7	-9	-17	0.1
CCc1n[nH]c(=S)n1/N=C/c1ccccn1	1.3	2.0%	-19	1	-2	0.4
O=C(CCc1cccc(Cl)c1)NC1CCCN(Cc2ccccc2F)C1 (stereo not given)	-2.5	0.0%	-5	-3	20	0.4
Cn1cc(S(=O)(=O)CC(=O)Nc2ccc3c(c2)OCO3)c2ccccc21	0.5	-2.2%[38.3 µM]	18	0	1	0.0
CCOC(=O)c1sc(-c2ccc(Cl)cc2)nc1O	2.1	1.7%	-14	1	7	-0.2
Cn1c(=O)c2c(ncn2CC(=O)OCC(=O)Nc2sccc2C(N)=O)n(C)c1=O	-0.8	0.2%	3	-9	0	0.6
O=C(CSc1ccc(F)cc1)Nc1ccccc1Br	0.5	0.8%	28	7	14	-0.6
Cc1onc(-c2ccccc2Cl)c1C(=O)NNC(=O)c1nn(C)cc1Cl	0.7	0.0%	5	-1	6	-0.1
O=C(O)c1ccc(N2CC3CC(C2)c2cccc(=O)n2C3)c(NC(=S)Nc2ccc(Cl)cc2Cl)c1 (stereo not given)	-0.4	-0.3%	8	1	7	-0.6
CCOC(=O)c1c(NC(=O)CSc2nc3ccccc3o2)sc(C)c1C	-0.8	?	-6	5	16	0.5
Cc1ccc(C)c(S(=O)(=O)c2nnn3c2nc(NCc2ccc4c(c2)OCO4)c2sccc23)c1	·	0.9%	17	·	·	0.3
CN(C1CCCCC1)S(=O)(=O)c1ccc(NC(=O)Cn2nc(-c3ccc(F)cc3)ccc2=O)cc1	-1.6	23%	-13	4	5	0.3
Cc1csc2nc(CN3CCN(CC(=O)N(C)C)CC3)cc(=O)n12	2.1	-1.1%	5	0	6	-0.5
Clc1ccc(CSc2nnc([C@@H]3CCCN3)o2)cc1Cl	-1.7	2.9%	28	-9	-1	1.2
Cc1cccc(N=C2CSC(=O)N2)c1	-3.5	2.3%	-19	7	3	0.2
COC(=O)[C@H]1C[C@@]2(O)CN(S(=O)(=O)c3ccc(C)cc3)C[C@@]2(OC(=O)NCc2ccccc2)C[C@H]1C(=O)OC	-6.2	0.4%	35	1	-4	-0.3
CN(CCC#N)C(=O)COC(=O)c1ccc(Cl)cc1O	-1.6	0.8%	-2	11	0	0.2
COc1ccc(OC)c(N2CC(O)(c3ccccc3)[N+]3=C2SCCC3)c1 (stereo not given)	1.5	0.0%	2	0	0	0.6
CC(=O)Nc1ccc(S(=O)(=O)N(C)CC(=O)N2CCN(C(=O)c3ccco3)CC2)cc1	-3.2	-0.3%	-3	6	6	0.4
O=C(COC(=O)c1ccco1)c1ccccc1	-0.3	6.0%	4	-1	2	-0.1
Cc1cc(N2CCOCC2)nc2ccc(NC(=S)N3CCCCC3C)cc12 (stereo not given)	2.5	3.2%	5	-26	-25	-0.1
CC(C)(C)n1nnnc1C(c1cccnc1)N1CCN(c2ccccc2)CC1 (stereo not given)	-5.2	-1.7%	5	-5	2	-0.7
COc1ccc(NC(=O)c2c(NC(=O)COc3ccccc3)sc3c2CCCCC3)cc1	·	4.4%	1	·	·	-0.8
CCc1c(C)nc(SCC(=O)NNC(=O)Cc2ccc(OC)cc2)[nH]c1=O	2.8	-0.2%	0	0	4	0.7
Cc1coc2c1c(C)cc1oc(=O)cc(C)c12	·	-1.5%	6	·	·	-0.4
CC(C)C(NC(=O)C(c1ccccc1)c1ccccc1)c1nc2ccccc2[nH]1 (stereo not given)	2.2	1.8%	5	-1	2	0.6
O=C(NNc1ccccc1[N+](=O)[O-])Nc1ccc(F)cc1F	-0.9	-0.8%	13	-4	-1	-0.8
CSc1cccc(NC(=O)C(C)Sc2ccc(C)cc2)c1 (stereo not given)	-0.3	-0.7%	24	10	2	1.3
COc1cccc(NC(=O)CSC(N)=O)c1	-3.0	-0.3%	10	8	6	3.5
O=C(Nc1ccc2c(c1)CCCN2C(=O)c1cccs1)c1ccccc1C(F)(F)F	·	0.3%	-4	·	·	-0.7
CC(O)CNCCCOc1cccc(Oc2ccccc2)c1 (stereo not given)	-4.6	8.8%	-3	2	-5	-0.5
O=C(O)C(Cc1ccccc1)NS(=O)(=O)c1ccc(Cl)cc1 (stereo not given)	4.5	1.4%	37	0	·	-0.7
NS(=O)(=O)c1ccc(N=Cc2c(O)c3ccccc3oc2=O)cc1	-2.4	2.5%	7	9	·	1.8
COc1cccc(C2c3[nH]c4ccccc4c3C[C@H]3C(=O)N(C4CC4)CC(=O)N23)c1 (stereo not given in full)	3.9	5.9%	8	-2	·	1.3
O=C(CNC(=O)c1cccc(Br)c1)N/N=C/c1ccc2c(c1)OCO2	-3.6	-1.8%	8	54	-9	0.3
NNc1nc(Nc2ccccc2)nc(N2CCCCC2)n1	-6.1	·	7	-14	7	-0.4
CC(=O)Nc1ccc(NC(=O)C(C)OC(=O)c2ccc(-n3cnnn3)cc2)cc1 (stereo not given)	-0.1	0.8%	-8	-3	3	-0.7
Clc1ccc(OCCN2CCN(c3ncnc4sccc34)CC2)cc1	5.7	1.3%	10	-4	5	1.2
O=[N+]([O-])c1cc(CN2CCOCC2)c2cccnc2c1O	9.9	4.8%	7	-88*	-4	-0.6
COc1cccc(CSc2nc3ccccc3cc2C=O)c1	-0.5	3.5%	11	2	10	1.1
CC(=O)c1ccc(Nc2nc3ccc(C)cc3n3cnnc23)cc1	4.0	1.8%	-2	2	5	-0.8
CC(=O)Nc1cccc2c1C(=O)N(c1ccc(OC(C)=O)cc1)C2=O	4.4	-1.2%	-7	-4	·	-0.6
O=C(CC1NCCNC1=O)Nc1cccc([N+](=O)[O-])c1 (stereo not given)	-4.0	2.1%	19	-4	-12	0.1
O=C(Nc1ccc(F)c(F)c1)C(c1ccccc1)N1Cc2ccccc2C1=O (stereo not given)	·	6.4%	-6	·	·	1.8
O=C(NC1CCCC1)c1cnn(-c2ccc(F)cc2F)c1C1CCNCC1	·	-4.8%	-2	·	·	0.2

(continued)
SMILES	D2 agonist	PINK1 expr mod	TRPML1 blocker	Six1-Eya2 blk	CtBP-E1A blk	TRPML1 agonist
CC(C)(CSc1nncn1N)NS(=O)(=O)c1ccc(Cl)cc1	-3.1	-0.2%	13	-2	-6	-0.9
CN(C)C(CNc1ccc(S(C)(=O)=O)cc1[N+](=O)[O-])Cc1ccccc1 (stereo not given)	-3.4	-0.3%	-10	-15	-12	-1.1
CC(C)(Oc1ccc(Cl)cc1)C(=O)N1CCC(C(N)=O)CC1	5.0	-1.0%	-2	2	0	0.0
CC(=O)Nc1ccc(NC(=O)C2C3C=CC(C3)C2C(=O)O)cc1 (stereo not given)	-1.7	0.2%	-7	-13	-1	0.9
CCCc1cc(-c2nc(-c3ccc(Br)cc3)cs2)ccn1	-0.3	19%	49	10	1	0.9
COc1ccccc1-c1noc(CCCC(=O)Nc2cc(C)ccc2C)n1	·	-0.1%	-22	·	·	-0.3
O=C(OCc1cccc(C(F)(F)F)c1)c1ccc[nH]c1=O	-1.2	-1.8%	35	6	4	0.8

Some entries already given with just D2 agonist and Six1-Eya2 blk:
structure | D2 agonist | Six1-Eya2 blk
COc1ccc(OC)c(N2CC(O)(c3ccccc3)[N+]3=C2SCCC3)c1 (stereo not given) | 1.5 | 0
CC(=O)Nc1ccc(S(=O)(=O)N(C)CC(=O)N2CCN(C(=O)c3ccco3)CC2)cc1 | -3.2 | 6

Source: PubChem

Random draw from the library; about 1% have a hit in one of these screens.
